Assay outcomes from PubChem.
TRPML1 ag – agonists of human TRPML1 channel; TRPML1-expressing cells, Ca2+ dye fluorescence, FDSS; host cell line not named in the record; reference of the full effect not given here; Q9GZU1; activation, % (test concentration not listed); 0.12% of 410,000 active; in the data active = activation above about 50%; inconclusive = about 30% to 50%; inactive = below about 30%; further: 0% is about no effect; the text of the record puts the active cut at 80%
Target sequence (Q9GZU1 whole entry, looked up): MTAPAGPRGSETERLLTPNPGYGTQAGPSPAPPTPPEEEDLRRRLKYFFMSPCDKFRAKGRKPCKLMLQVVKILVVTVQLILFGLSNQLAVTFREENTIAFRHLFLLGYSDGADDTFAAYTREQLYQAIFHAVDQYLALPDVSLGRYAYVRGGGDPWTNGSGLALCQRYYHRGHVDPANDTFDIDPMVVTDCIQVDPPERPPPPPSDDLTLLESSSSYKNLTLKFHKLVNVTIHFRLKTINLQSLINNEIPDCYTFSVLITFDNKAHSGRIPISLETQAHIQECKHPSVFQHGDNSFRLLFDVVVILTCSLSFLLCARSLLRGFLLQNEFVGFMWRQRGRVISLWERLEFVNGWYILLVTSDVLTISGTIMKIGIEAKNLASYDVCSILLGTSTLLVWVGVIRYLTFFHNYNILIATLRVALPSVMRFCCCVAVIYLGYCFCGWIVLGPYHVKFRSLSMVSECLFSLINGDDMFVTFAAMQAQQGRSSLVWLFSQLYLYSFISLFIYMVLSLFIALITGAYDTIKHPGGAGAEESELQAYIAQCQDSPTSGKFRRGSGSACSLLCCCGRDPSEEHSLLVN
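Agonist activity was taken from a 110 s kinetic Ca2+ dye read on the FDSS after pinning compounds onto TRPML1-DL cells. The cells were seeded at 1,500/well with Tet inducer, incubated about 16 h, then dye-loaded at room temperature.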
D2 potentiator – positive allosteric modulators of human D2 dopamine receptor; P14416; DiscoveRx D2 beta-arrestin cells, luminescence, 90 min; 100% = 57 uM dopamine signal; potentiation, % (concentration not given with the values); 0.23% of 360,000 active; AID 624464; active = potentiation of 50% or more; inconclusive = 30% to 50%; inactive = 30% or less;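 further: compound concentration not given in the record; tested on top of an EC20 dose of dopamine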
Target sequence (P14416 whole entry, looked up): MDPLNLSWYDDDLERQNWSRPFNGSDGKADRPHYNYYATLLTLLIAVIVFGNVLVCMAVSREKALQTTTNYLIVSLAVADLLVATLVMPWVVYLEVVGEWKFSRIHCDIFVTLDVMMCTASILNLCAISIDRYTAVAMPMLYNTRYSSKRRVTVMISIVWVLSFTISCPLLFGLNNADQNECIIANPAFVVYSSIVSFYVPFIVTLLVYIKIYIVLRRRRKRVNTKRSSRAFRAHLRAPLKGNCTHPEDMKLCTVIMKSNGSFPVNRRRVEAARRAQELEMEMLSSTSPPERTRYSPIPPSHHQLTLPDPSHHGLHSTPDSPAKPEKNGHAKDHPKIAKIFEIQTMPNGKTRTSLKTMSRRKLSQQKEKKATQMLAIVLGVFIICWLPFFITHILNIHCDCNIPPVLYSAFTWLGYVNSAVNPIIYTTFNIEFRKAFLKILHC
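PathHunter beta-arrestin assay in DiscoveRx D2 cells. Compounds were added with an EC20 of dopamine (50 nM final) for 90 min at 37 deg C. Luminescence was read 1 h after detection reagent, with 57 uM dopamine as the EC100 control.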
CtBP-E1A inh – CtBP/E1A binding inhibition; AID 651724; activity change, % (concentration not given with the values); 0.49% of 340,000 active; AlphaScreen GST-E1A/His-CtBP binding, 1536-well; stronger effect = lower value; control for the full effect not named in the record; in the data active means activity change below about -65%; inconclusive means about -30% to -65%; inactive means above about -30%; further: on the % scale 0 is the no-effect control and ±100 the full control effect
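Steps: dispense buffer (Tris pH 8.0, NaCl 300 mM, TCEP 1 mM, BSA, Tween 20); add 5X protein mix (GST-E1A, His-CtBP, 125 nM each); pin 23 nL compound; 2 h at 37 °C, dark; add 5X beads (50 ug/mL); 1 h; read.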
TRPV1 PAM – human TRPV1 potentiation; Q8NER1; TRPV1-expressing cells, Fluo-8 calcium influx, capsaicin EC20 potentiation; host cell line not named in the record; control for the full effect not named in the record; potentiation, % at 8.33 µM; 0.02% of 320,000 active; active means potentiation above 80%; inconclusive means 30% to 80%; inactive means below 30%; further: 0% is about no effect
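Cells expressing TRPV1 were dye-loaded with Fluo-8 and read kinetically: 10 s baseline, 3 min after compound (agonist portion), then 2 min after EC20 capsaicin (allosteric enhancer portion). Calcium-bound dye fluorescence at 480/520 nm.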
Six1-Eya2 blk – blocks human Six1 binding to Eya2. AlphaScreen GST-Six1/His-Eya2 binding, biochemical; stronger effect = lower value; control for the full effect not named in the record. activity change, % (test concentration not listed). 0.56% of 360,000 active; in the data active = activity change below about -65%; inconclusive = about -30% to -65%; inactive = above about -30%; further: on the % scale 0 is the no-effect control and ±100 the full control effect; compound concentration not given in the record
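Six1/Eya2 binding was read as AlphaScreen signal after compounds were pinned into GST-Six1 plus His-tagged Eya2 (5X stock 250/500 nM) in pH 8.0 Tris/NaCl/TCEP buffer, beads added, then incubated 1 h, 37 C, dark.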
TRPML1 blocker – human mucolipin-1 channel inhibition; 0.02% of 390,000 active; activity change, negative = inhibition, % (concentration not given with the values); Q9GZU1; AID 624415; TRPML1-inducible cells, Ca2+ dye fluorescence, FDSS; stronger effect = lower value; inhibition of EC80 agonist-evoked calcium signal; in the data active means activity change below about -50%; inconclusive means about -30% to -50%; inactive means above about -30%;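 further: stimulus is agonist 54-4 at its EC80 concentration; on the % scale 0 is the no-effect control and ±100 the full control effect; compound concentration not given in the record; the text of the record puts the active cut at -80%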
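Calcium fluorescence in TRPML1-DL cells induced overnight with Tet: a 110 s read after compound pin addition, then a 110 s antagonist read after challenge with 54-4 at 4 uM final (EC80).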
Numbers without * were called inactive; ? = inconclusive; . = not tested or not shown.

compound,TRPML1 ag,D2 potentiator,CtBP-E1A inh,TRPV1 PAM,Six1-Eya2 blk,TRPML1 blocker
Cc1c(CN2CCN(C)C(CCO)C2)[nH]c2c(Cl)cccc12 (configuration not stated),1.8,-13,-5,26,-1,-6
CN1CCN(NC(=O)c2cc(S(=O)(=O)N3CCOCC3)c(Cl)cc2Cl)CC1,0.5,-25,14,0,6,-10
CCOc1nnc(C)c2c(C)n(-c3cccc(OC)c3)nc12,1.4,?,5,.,-3,14
O=C(NCCN1CCOCC1)c1ccc2c(c1)ncn2C1CCCC1,-0.6,-3,1,-10,3,18
CC(=O)OC1(C(C)=O)CCC2C3CC(Cl)C4=CC(=O)CCC4(C)C3CCC21C (configuration not stated),1.9,-2,-6,.,2,-2
CCOc1ccc(NC(=O)c2cc3cc4ccc(OC)cc4nc3o2)cc1,1.0,-15,-7,1,-3,-7
Cc1noc(C)c1CSCC(=O)Nc1ccccc1N1CCCC1,0.9,1,-10,.,-4,6
O=C(CSc1nnc(-c2ccc(F)cc2)o1)c1ccc2c(c1)OCCO2,0.1,-2,-2,-1,5,-7
Cc1no[n+]([O-])c1COc1cccc(/C=C2\N=C(c3ccccc3)OC2=O)c1,0.9,-11,-1,-1,3,-23
Cc1cc(C)cc(NC(=O)c2cc(S(=O)(=O)N3CCCC3)cn2C)c1,0.6,-5,20,1,17,42

Reprinted from the part before: five entries, then new ones.
compound,TRPML1 ag,D2 potentiator,CtBP-E1A inh,TRPV1 PAM,Six1-Eya2 blk,TRPML1 blocker
CCOc1ccc(NC(=O)c2cc3cc4ccc(OC)cc4nc3o2)cc1,1.0,-15,-7,1,-3,-7
Cc1noc(C)c1CSCC(=O)Nc1ccccc1N1CCCC1,0.9,1,-10,.,-4,6
O=C(CSc1nnc(-c2ccc(F)cc2)o1)c1ccc2c(c1)OCCO2,0.1,-2,-2,-1,5,-7
Cc1no[n+]([O-])c1COc1cccc(/C=C2\N=C(c3ccccc3)OC2=O)c1,0.9,-11,-1,-1,3,-23
Cc1cc(C)cc(NC(=O)c2cc(S(=O)(=O)N3CCCC3)cn2C)c1,0.6,-5,20,1,17,42
CS(=O)(=O)Nc1cc2c3c(c1)CCC(=O)N3CCC2,-0.3,-2,.,22,9,1
Cc1ccc(N=C2CSC(=O)N2)cc1,-0.6,-2,8,-9,-4,0
COc1cccc(N2CCN(C(=O)c3ccc(Cl)c(S(=O)(=O)N4CCCCCC4)c3)CC2)c1,-1.1,-4,5,.,-2,5
Cc1nc(N2CCN(c3ccccc3O)CC2)c2c(-c3ccccc3)csc2n1,0.1,27,-6,-1,-10,20
CCc1nc2ccc(C(=O)NCc3ccc4c(c3)OCO4)cn2c1N(C)Cc1cccs1,-0.8,-20,-10,.,-8,.
CCC(C)Cn1c(C(C)O)nc2ccccc21 (configuration not stated),-0.9,0,-2,-1,-13,-1
O=c1oc2ccc(Br)cc2cc1-c1nc2ccccc2o1,0.7,-2,-3,0,1,6
CC(=O)c1ccc(NC(=O)/C(=C\c2cccs2)NC(=O)c2ccco2)cc1,-0.4,-9,5,5,-3,0
CCCCc1ccc(NC(=O)Nc2cccnc2)cc1,-0.6,-20,?,6,-11,1
COc1ccccc1P(=O)(Cc1ccccc1)c1ccccc1 (configuration not stated),0.9,-4,6,-13,5,-11

Reprinted from the part before: two entries; new compounds follow.
compound,TRPML1 ag,D2 potentiator,CtBP-E1A inh,TRPV1 PAM,Six1-Eya2 blk,TRPML1 blocker
CCCCc1ccc(NC(=O)Nc2cccnc2)cc1,-0.6,-20,?,6,-11,1
COc1ccccc1P(=O)(Cc1ccccc1)c1ccccc1 (configuration not stated),0.9,-4,6,-13,5,-11
Cc1cccc(C)c1OCC(=O)NNC(=O)CCNC(=O)c1ccc(Br)cc1,0.2,64*,11,3,1,-11
CCCCc1c(-c2ccccc2OC)ncn1CCc1ccccc1Cl,0.2,.,-25,.,-18,.
O=C(O)CC/C(=N/NC(=O)CNC(=O)Cc1ccccc1)c1ccccc1,-0.3,-11,-7,-3,1,-1
CCOc1cc(C2Nc3ccccc3C(=O)N2c2ccccc2OC)ccc1O (configuration not stated),2.5,23,0,0,0,?
CCOC(=O)COc1ccc(C(c2c(C)[nH][nH]c2=O)c2c(C)[nH][nH]c2=O)cc1,0.0,-1,-2,17,3,27
O=C(Nc1ccc(N2CCN(C(=O)c3ccccc3)CC2)c(Cl)c1)c1cccnc1,-0.3,12,-6,-13,-5,0
CCc1nnc(NC(=O)c2ccc(Br)o2)s1,0.4,-8,7,-1,1,8
COCCn1nnnc1SCC(=O)c1ccc(F)cc1,-1.1,-19,-3,-3,1,7
COc1ccc(S(=O)(=O)N(Cc2ccccc2)c2ccccc2C(=O)O)cc1,0.4,2,10,-13,4,11
Cc1nn(C)c(C(=O)N/N=C/c2cccc3ccccc23)c1Cl,2.2,-6,-2,-14,14,12
CCOc1ccc(NC(=O)CSc2ccc3nnc(-c4ccccn4)n3n2)cc1,0.0,-1,-8,4,7,0
CN(C)S(=O)(=O)c1cc(NC(=O)COC(=O)/C=C/c2ccco2)ccc1Cl,1.0,-15,.,0,-26,-1
CCOCCCNC(=O)C(NC(=O)c1cnccn1)c1ccc(C)cc1 (configuration not stated),0.2,-7,3,-2,6,8
C=CCn1c(SC(C)C(N)=O)nc2sc(CC)cc2c1=O (configuration not stated),2.1,-2,-8,-15,12,-1
CCOc1cc(-c2cc(N)n[nH]2)cc(OCC)c1OCC,0.1,-2,2,-5,-3,9
CC(=O)N/C(=C\c1ccc(F)cc1)C(=O)N(C)C,0.2,-10,-13,4,8,12
CSCCC(NS(=O)(=O)c1ccc2c(c1)oc(=O)n2C)C(=O)NC1CCC(C)CC1 (configuration not stated),0.0,-3,5,6,0,-9
CC(C)(C)N1CCC1CN (configuration not stated),0.4,-3,-1,27,34,-6
COc1ccccc1-n1c(SCC(=O)Nc2cccc(C(=O)O)c2)nnc1-c1ccccc1O,-0.3,-7,3,1,-2,-4
COc1ccc(Cn2c(C)c(C)c(C#N)c2NC(=O)Nc2cccc(C)c2)cc1,0.0,-11,2,-7,4,-6
Cc1ccc(SCCC(=O)N/N=C/c2ccccc2O)cc1,-0.4,-8,2,-5,-10,-5
CCc1nc(C)ccc1OCC(=O)N(CC)CC,0.4,5,11,-3,5,22
CC(C)Cn1c(N)c(C(=O)COC(=O)COc2cccc(C(F)(F)F)c2)c(=O)n(C)c1=O,0.0,3,-1,8,0,8
CCCCN(C(=O)CCC(=O)Nc1cc(C)on1)C(C(=O)NC1CCCC1)c1ccc(F)cc1 (configuration not stated),1.7,-7,-3,0,7,-4
CN1CCN(S(=O)(=O)c2cccs2)CC1,1.0,-4,5,?,1,-15
COc1ccc(C(=O)NC(=S)N2CCOCC2)cc1OC,0.1,-4,.,0,10,-18
N#Cc1ccc(OCC(O)CN2CCC(C(O)(c3ccccc3)c3ccccc3)CC2)cc1 (configuration not stated),3.3,-38,-13,-5,-4,-10
Cc1cccc(N2CCN(C(=O)/C=C/c3cccs3)CC2)c1C,1.8,-23,7,?,3,28
CN(C)C(=O)c1cn(CCC#N)nc1-c1ccc2ccccc2c1,-0.2,-8,-1,2,-2,3
COc1cc(CCC(=O)OCC(=O)Nc2ccc(Br)cc2F)cc(OC)c1OC,2.2,-6,-11,1,-19,14
CC(C)CC1C(=O)N(Cc2cn(Cc3ccco3)nn2)CCS(=O)(=O)N1Cc1ccc(-c2cccc(N(C)C)c2)cc1 (configuration not stated),-0.3,2,-17,.,-12,-1
Cc1ccccc1CS(=O)(=O)CCC(=O)NCc1ccccn1,-0.7,-17,0,-6,19,1
COc1ccc(-c2csc(NC(=S)NC(=O)c3cccs3)n2)cc1OC,0.5,15,?,5,?,-4
COc1cccc(CNC(=O)c2cc3c(C)nc4ccccc4c3o2)c1,-0.2,-1,-66*,-3,?,3
CC(=O)NC1C(OCc2ccccc2)OC2COC(C)(C)OC2C1O (configuration not stated),-0.4,0,6,0,15,-4
CC(NC(=O)c1ccco1)C(=O)NC(C)c1cc(F)c(Cl)cc1Cl (configuration not stated),1.2,-19,8,29,8,0
O=C(NCc1ccco1)Nc1ccc(Br)cc1,1.6,-23,-7,-9,2,10
COc1ccc(-c2cc(-c3ccccc3)nc(SCC(=O)Nc3ncc(C)s3)c2C#N)cc1,2.2,-5,-4,4,-12,19
Cc1ccc(N/C=C2/Sc3ccccc3NC2=O)cc1,2.3,-2,-1,-19,-5,-17
CCc1ccccc1NC(=O)CCCN1C(=O)c2cccnc2C1=O,-1.1,-6,5,30,2,-4
O=C(Oc1c(-c2ccccc2)c(=O)n2c3c(cccc13)CC2)c1ccccc1,3.0,12,-1,-13,-8,56
CC(C)C[C@H]1C(=O)N2CCC[C@H]2[C@]2(O)O[C@](NC(=O)C3C=C4c5cccc6[nH]c(Br)c(c56)C[C@H]4N(C)C3)(C(C)C)C(=O)N12 (some centres not stated),2.0,?,-18,.,-26,-5
CCCCN(C)Cc1cc(=O)oc2cc3c(cc12)CCCC3,0.5,-22,5,-18,19,-5
COc1cc2c(cc1OC)CN(Cc1cccs1)CC2,-0.3,-20,7,?,-2,-5
COc1ccccc1N1CCN(c2cc(=O)n(-c3ccc(Cl)cc3)c(=O)[nH]2)CC1,-0.7,-9,9,8,5,-14
CC(/C=C/c1ccc(C)o1)=C\C(=O)O,0.2,-9,4,13,1,-8
O=C(CCNC(=O)c1ccccc1Cl)NCC(c1ccc(F)cc1)N1CCOCC1 (configuration not stated),-0.4,-8,1,-1,-3,3
Cc1cc(C)c(C(=O)CN2C(=O)C(=O)N(C3CCCC3)C2=O)cc1C,1.7,0,1,4,-2,-2
CCOc1ccc(Nc2nc(NCC(=O)O)nc(N)c2[N+](=O)[O-])cc1,-0.3,-5,-8,-5,-8,11
COc1cccc(Oc2ccc(N)cn2)c1,0.1,-5,5,-10,0,-1

Remaining list, next part.
compound,TRPML1 ag,D2 potentiator,CtBP-E1A inh,TRPV1 PAM,Six1-Eya2 blk,TRPML1 blocker
COc1ccc(CC2(CO)CCN(C(=O)NCc3ccccc3)CC2)cc1,1.0,-5,3,-7,-1,18
COCc1[nH][nH]c(=O)c1C=Nc1ccc(OC(F)(F)F)cc1,0.4,-5,.,18,5,10
CCCCC1=CC2=CC(=O)C(C)(OC(=O)CC)C(=O)C2=CN1Cc1ccc2c(c1)OCO2 (configuration not stated),-0.4,8,-16,-24,-13,-11
Cc1onc(-c2c(Cl)cccc2Cl)c1C(=O)N=S(C)(=O)c1ccccc1 (configuration not stated),1.1,5,2,0,1,-4
O=C(O)CCCC(=O)Nc1ccc(N2CCCC2)cc1,-0.3,69*,-14,6,-26,-4
COc1ccc(-c2c(-c3cc(OC)cc(OC)c3)n(C)c3ccc(-c4ccc5cc[nH]c5c4)cc23)cc1,-0.5,-9,-13,.,-18,2
O=C(CN1C(=O)NC2(CCCCCCC2)C1=O)Nc1cccc(Br)c1,0.5,-9,1,.,1,31
